# HIV Env fusion: inhibitors of HIV Env-mediated cell fusion; HeLa-JRFL Env/CEM21 cell fusion, luciferase; inhibition, % at 12.3 µM; hit rate 1.1% among 360,000; AID 651610;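 active = mean replicate inhibition score of at least 50 and every replicate individually at or above 50; inconclusive = only one of the two criteria met; inactive = mean below 50 and not all replicates reaching 50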;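 also: 0% = plate neutral controls and 100% = maraviroc near 300 nM; one replicate is shown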
# UUG fidelity: modulators of start codon recognition fidelity in yeast | hit rate 0.13% among 350,000 | AID 602363 | activity score, % at 18.7 µM | S. cerevisiae UUG-firefly luciferase reporter, luminescence/redox ratio;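 active = replicate mean at a twofold rise or more, about +100% in these data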;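 also: firefly luciferase made from a UUG start codon reports start codon fidelity; reporter light over untreated wells divided by growth signal over untreated wells; some hits fall short of that in this replicate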
# Starred values were filed as active, the others as inactive; ? = inconclusive; [ ] = remark or other dose. The list is partial; count on the stated rates, not on these rows.
HIV Env fusion | UUG fidelity | molecule
-3[16.7 µM] | -8 | COc1ccc(C#Cc2cnc3c(c2)C(=O)N([C@H](C)CO)C[C@@H](C)[C@@H](CN(C)C(=O)CN(C)C)O3)cc1
-17[16.7 µM] | -6 | C[C@H]1CCCCO[C@@H](CN(C)CC2CCCCC2)[C@@H](C)CN([C@@H](C)CO)C(=O)c2cc(NS(=O)(=O)c3cn(C)cn3)ccc2O1
23[16.7 µM] | -2 | O=C(Nc1ccc(Cl)cc1)N[C@@H]1CC[C@H](CCn2cc(-c3ccccc3F)nn2)O[C@@H]1CO
-9[16.7 µM] | -9 | N#C[C@H]1N[C@H](CO)[C@H]1c1ccc(C2=CCCC2)cc1
4[16.7 µM] | 2 | CCC(=O)N(C)C[C@H]1Oc2cc(-c3cccc(C#N)c3)ccc2S(=O)(=O)N([C@H](C)CO)C[C@@H]1C
63*[16.7 µM] | -1 | O=C(C[C@@H]1C[C@@H]2c3cc(NC(=O)C4CCOCC4)ccc3O[C@@H]2[C@H](CO)O1)NCCc1ccccc1
-5[16.7 µM] | -1 | C[C@H]1CN([C@@H](C)CO)C(=O)Cc2cc(NC(=O)C3CC3)ccc2O[C@@H]1CN(C)S(C)(=O)=O
-18[16.7 µM] | -1 | C[C@H](CO)N1C[C@H](C)[C@@H](CN(C)Cc2cccnc2)Oc2ncc(C3=CCCCC3)cc2C1=O
-11[16.7 µM] | 43 | COc1ccc(NC(=O)N(C)C[C@@H]2Oc3cc(C#CCN(C)C)ccc3S(=O)(=O)N([C@H](C)CO)C[C@@H]2C)cc1
-2[16.7 µM] | -14 | CC(C)CC#Cc1ccc2c(c1)O[C@H](CN(C)C(=O)c1ccncc1)[C@H](C)CN([C@@H](C)CO)S2(=O)=O

# Another view of 5 compounds above:
# Values run as follows: HIV Env fusion	UUG fidelity
> C[C@H]1CCCCO[C@@H](CN(C)CC2CCCCC2)[C@@H](C)CN([C@@H](C)CO)C(=O)c2cc(NS(=O)(=O)c3cn(C)cn3)ccc2O1
 : -17[16.7 µM]	-6
> O=C(Nc1ccc(Cl)cc1)N[C@@H]1CC[C@H](CCn2cc(-c3ccccc3F)nn2)O[C@@H]1CO
 : 23[16.7 µM]	-2
> N#C[C@H]1N[C@H](CO)[C@H]1c1ccc(C2=CCCC2)cc1
 : -9[16.7 µM]	-9
> CCC(=O)N(C)C[C@H]1Oc2cc(-c3cccc(C#N)c3)ccc2S(=O)(=O)N([C@H](C)CO)C[C@@H]1C
 : 4[16.7 µM]	2
> O=C(C[C@@H]1C[C@@H]2c3cc(NC(=O)C4CCOCC4)ccc3O[C@@H]2[C@H](CO)O1)NCCc1ccccc1
 : 63*[16.7 µM]	-1

# Next records.
HIV Env fusion | UUG fidelity | molecule
14[16.7 µM] | -5 | CCCC#Cc1ccc2c(c1)O[C@@H](CN(C)Cc1cncnc1)[C@@H](C)CN([C@@H](C)CO)S2(=O)=O
14[16.7 µM] | -9 | C[C@@H]1CN([C@@H](C)CO)C(=O)c2cc(NC(=O)Nc3cccc4ccccc34)ccc2O[C@@H](C)CCCCO[C@@H]1CN(C)S(=O)(=O)c1ccc(F)cc1
-11[16.7 µM] | 22 | CO[C@@H]1CN(C)C(=O)c2cc(NC(=O)C3CCOCC3)ccc2OC[C@H](C)NC[C@@H]1C
-2[16.7 µM] | 37 | Cc1ccc(S(=O)(=O)N(C)C[C@@H]2OCCCC[C@@H](C)Oc3ccc(NS(=O)(=O)c4cccs4)cc3C(=O)N([C@@H](C)CO)C[C@H]2C)cc1
-2[16.7 µM] | -4 | C[C@H]1CN([C@@H](C)CO)S(=O)(=O)c2ccc(C#Cc3ccncc3)cc2O[C@@H]1CN(C)C(=O)c1ccncc1
13[16.7 µM] | -5 | C[C@@H]1CCCCO[C@@H](CN(C)S(=O)(=O)c2ccc(Cl)cc2)[C@@H](C)CN([C@@H](C)CO)C(=O)c2cc(NC(=O)Nc3ccc(C(F)(F)F)cc3)ccc2O1
0[16.7 µM] | 8 | COc1ccccc1NC(=O)N[C@H]1CC[C@H](CCNC(=O)c2ccc3c(c2)OCO3)O[C@H]1CO
87*[16.7 µM] | -1 | C[C@H]1CCCCO[C@H](CN(C)C(=O)Nc2cccc3ccccc23)[C@@H](C)CN([C@@H](C)CO)C(=O)c2cc(NS(=O)(=O)c3ccc(F)cc3)ccc2O1
11[16.7 µM] | 7 | COC(=O)C[C@@H]1CC[C@@H]2[C@@H](COc3ccc(NC(=O)c4cccc(OC)c4)cc3C(=O)N2C)O1
4[16.7 µM] | 8 | C[C@H](CO)N1C[C@H](C)[C@@H](CN(C)C(=O)C2CCOCC2)Oc2cc(-c3ccc(C(=O)N(C)C)cc3)ccc2S1(=O)=O

# Quoted from the entries so far (2 entries):
HIV Env fusion | UUG fidelity | molecule
11[16.7 µM] | 7 | COC(=O)C[C@@H]1CC[C@@H]2[C@@H](COc3ccc(NC(=O)c4cccc(OC)c4)cc3C(=O)N2C)O1
4[16.7 µM] | 8 | C[C@H](CO)N1C[C@H](C)[C@@H](CN(C)C(=O)C2CCOCC2)Oc2cc(-c3ccc(C(=O)N(C)C)cc3)ccc2S1(=O)=O

# Next compounds follow.
HIV Env fusion | UUG fidelity | molecule
-125[16.7 µM] | -5 | CC(C)NC(=O)N(C)C[C@@H]1OCCCC[C@H](C)Oc2ccc(NS(=O)(=O)c3ccc(Cl)cc3)cc2C(=O)N([C@H](C)CO)C[C@@H]1C
18[16.7 µM] | 2 | C[C@@H]1CN([C@H](C)CO)C(=O)Cc2cc(NC(=O)C3CCCCC3)ccc2O[C@H]1CN(C)S(C)(=O)=O
1[16.7 µM] | 7 | Cc1noc(C)c1S(=O)(=O)Nc1ccc2c(c1)C(=O)N([C@@H](C)CO)C[C@@H](C)[C@H](CN(C)C(=O)CCCN(C)C)OCCCC[C@H](C)O2
26[16.7 µM] | 18 | C[C@H]1CN([C@@H](C)CO)C(=O)c2cc(NC(=O)NC3CCCCC3)ccc2O[C@@H]1CN(C)Cc1ccc(-c2ccccc2)cc1
5[16.7 µM] | 6 | COc1ccc(CN(C)C[C@H]2Oc3ccc(NC(=O)Nc4ccc(C(F)(F)F)cc4)cc3C(=O)N([C@@H](C)CO)C[C@H]2C)cc1
11[16.7 µM] | -11 | C[C@H](O)C#Cc1cnc2c(c1)C(=O)N([C@H](C)CO)C[C@@H](C)[C@@H](CN(C)C(=O)c1ccccc1F)O2
9[16.7 µM] | -11 | C[C@@H]1CN([C@H](C)CO)C(=O)c2cc(NS(=O)(=O)c3cccs3)ccc2O[C@@H]1CN(C)Cc1ccc(C(=O)O)cc1
18[16.7 µM] | -5 | C[C@@H]1CCCCO[C@H](CN(C)C(=O)Nc2ccc(C(F)(F)F)cc2)[C@H](C)CN([C@H](C)CO)C(=O)c2cc(NS(=O)(=O)c3ccc(Cl)cc3)ccc2O1
-20[16.7 µM] | -6 | C[C@H](O)C#Cc1cnc2c(c1)C(=O)N([C@@H](C)CO)C[C@H](C)[C@H](CN(C)Cc1cccc(F)c1)O2
-6[16.7 µM] | -2 | CC(C)NC(=O)N(C)C[C@@H]1Oc2ccc(NS(=O)(=O)c3ccccc3)cc2CC(=O)N([C@H](C)CO)C[C@H]1C
12[16.7 µM] | 4 | CC(C)C#Cc1ccc([C@@H]2[C@@H](C#N)N(C(=O)C3CC3)[C@H]2CO)cc1
1[16.7 µM] | -11 | O=C(N[C@H]1C=C[C@H](CC(=O)N2CCOCC2)O[C@H]1CO)c1ccccn1
-8[16.7 µM] | -8 | O=C(NC1CCCCC1)N[C@@H]1CC[C@H](CC(=O)N2CCOCC2)O[C@H]1CO
23[16.7 µM] | -5 | C[C@H](CO)N1C[C@H](C)[C@H](CN(C)C(=O)Cc2ccncc2)Oc2ncc(C#CC3(O)CCCC3)cc2C1=O
-27[16.7 µM] | 1 | Cc1noc(C)c1NC(=O)N(C)C[C@H]1Oc2ncc(C#CC(C)C)cc2C(=O)N([C@H](C)CO)C[C@@H]1C
-15[16.7 µM] | 2 | Cc1noc(C)c1S(=O)(=O)Nc1ccc2c(c1)C(=O)N([C@@H](C)CO)C[C@H](C)[C@@H](CN(C)C(=O)Nc1ccc3c(c1)OCO3)OCCCC[C@H](C)O2
22[16.7 µM] | 9 | COCC(=O)N(C)C[C@@H]1Oc2cc(C#CCC3CCCC3)ccc2S(=O)(=O)N([C@@H](C)CO)C[C@H]1C
13[16.7 µM] | 2 | C[C@@H]1CN([C@H](C)CO)C(=O)c2cccc(NS(=O)(=O)c3ccc(F)cc3)c2O[C@@H]1CN(C)Cc1ccccc1
-11[16.7 µM] | 14 | C[C@@H]1CN([C@H](C)CO)C(=O)Cc2cc(NC(=O)Cn3cnnn3)ccc2O[C@@H]1CN(C)S(=O)(=O)c1ccccc1
7[16.7 µM] | 8 | C/C=C/c1ccc2c(c1)O[C@H](CN(C)C(=O)Cc1ccccn1)[C@H](C)CN([C@@H](C)CO)S2(=O)=O
-8[16.7 µM] | 9 | C[C@@H]1CCCCO[C@H](CN(C)S(=O)(=O)c2cn(C)cn2)[C@@H](C)CN([C@H](C)CO)C(=O)c2cc(NC(=O)Nc3ccccc3)ccc2O1
0[16.7 µM] | 0 | CC(C)C#Cc1cnc2c(c1)C(=O)N([C@H](C)CO)C[C@@H](C)[C@H](CN(C)Cc1ccc3c(c1)OCO3)O2
-10[16.7 µM] | -10 | COCC#Cc1ccc2c(c1)O[C@H](CN(C)Cc1cccnc1)[C@@H](C)CN([C@@H](C)CO)S2(=O)=O
-21[16.7 µM] | 3 | COCC#Cc1cnc2c(c1)C(=O)N([C@@H](C)CO)C[C@H](C)[C@@H](CN(C)Cc1ccccc1)O2
-17[16.7 µM] | 5 | Cc1ccc(S(=O)(=O)Nc2ccc3c(c2)C(=O)N(C)[C@@H]2CC[C@H](CC(=O)O)O[C@@H]2CO3)cc1
4[16.7 µM] | -26 | CO[C@H]1CN(C)C(=O)c2ccc(NC(C)=O)cc2OC[C@H](C)N(Cc2ccccn2)C[C@H]1C
-13[16.7 µM] | 16 | C[C@H]1CN([C@@H](C)CO)C(=O)c2cccc(NC(=O)Nc3ccc(F)cc3)c2O[C@H]1CN(C)S(=O)(=O)c1ccccc1
20[16.7 µM] | -13 | C[C@@H]1CCCCO[C@H](CN(C)C(=O)Nc2ccc(C(F)(F)F)cc2)[C@H](C)CN([C@@H](C)CO)C(=O)c2cc(NS(=O)(=O)c3ccc(Cl)cc3)ccc2O1
1[16.7 µM] | -4 | COc1ccc(NC(=O)N(C)C[C@@H]2Oc3ccc(NC(=O)C4CCCCC4)cc3CC(=O)N([C@H](C)CO)C[C@@H]2C)cc1
-6[16.7 µM] | -11 | C[C@@H]1CN([C@@H](C)CO)C(=O)c2cc(NC(=O)Nc3ccc(C(F)(F)F)cc3)ccc2O[C@@H](C)CCCCO[C@@H]1CN(C)S(=O)(=O)c1cn(C)cn1
21[16.7 µM] | 11 | C[C@@H]1CCCCO[C@H](CN(C)Cc2ccc(C(F)(F)F)cc2)[C@@H](C)CN([C@@H](C)CO)C(=O)c2cc(NS(=O)(=O)c3ccc(Cl)cc3)ccc2O1
-32[16.7 µM] | -9 | C[C@@H]1CCCCO[C@H](CN(C)C(=O)Nc2cccc3ccccc23)[C@H](C)CN([C@H](C)CO)C(=O)c2cc(NS(=O)(=O)c3cccs3)ccc2O1
12[16.7 µM] | -12 | Cc1ccc(S(=O)(=O)N[C@H]2CC[C@H](CC(=O)O)O[C@H]2CO)cc1
-1[16.7 µM] | -1 | COc1ccccc1S(=O)(=O)N[C@H]1CC[C@H](CC(=O)N2CCOCC2)O[C@@H]1CO
75*[16.7 µM] | 2 | C[C@H](CO)N1C[C@H](C)[C@H](CN(C)S(=O)(=O)c2cccs2)Oc2ccc(NC(=O)Nc3cccc4ccccc34)cc2CC1=O
-11[16.7 µM] | -3 | O=C(Nc1ccc2c(c1)OCO2)N[C@H]1CC[C@H](CCNC(=O)C2CCCCC2)O[C@@H]1CO
-9 | -8 | Cc1ccc(OCC(=O)OCC(=O)NC2CCCCCC2)cc1C
-14[16.7 µM] | 20 | C[C@H](CO)N1C[C@H](C)[C@@H](CN(C)S(C)(=O)=O)OCCCC[C@H](C)Oc2ccc(NS(=O)(=O)c3ccc(Cl)cc3)cc2C1=O
8[16.7 µM] | 5 | COc1cccc(NC(=O)N[C@@H]2C=C[C@@H](CC(=O)NCc3ccncn3)O[C@H]2CO)c1
-22[16.7 µM] | 20 | O=C(C[C@@H]1C=C[C@@H](NC(=O)C2CCC2)[C@H](CO)O1)NC1CCC1
-11[16.7 µM] | 5 | Cc1noc(C)c1NC(=O)N(C)C[C@H]1Oc2ccc(NC(=O)Cc3cn(C)c4ccccc34)cc2CC(=O)N([C@H](C)CO)C[C@@H]1C
10[16.7 µM] | 0 | O=C(C[C@@H]1CC[C@@H]2[C@H](COC[C@H](O)CN2CC2CCCCC2)O1)NCc1ccc(F)cc1
1[16.7 µM] | -16 | O=C(C[C@@H]1CC[C@H](NC(=O)Nc2cc(F)ccc2F)[C@H](CO)O1)NCc1ccncn1
10[16.7 µM] | 2 | C[C@H]1CN([C@@H](C)CO)C(=O)c2cc(-c3cccc(F)c3)cnc2O[C@H]1CN(C)CC1CCOCC1
10[16.7 µM] | -14 | CCS(=O)(=O)Nc1ccc2c(c1)C(=O)N(C)[C@@H]1CC[C@H](CC(=O)N3CCOCC3)O[C@@H]1CO2
-10[16.7 µM] | -7 | C[C@@H]1CN([C@@H](C)CO)S(=O)(=O)c2ccc(/C=C/c3ccccc3)cc2O[C@@H]1CN(C)Cc1cccnc1
? | 12 | Cc1noc(C)c1S(=O)(=O)N(C)C[C@H]1Oc2ccc(NS(=O)(=O)c3cccs3)cc2CC(=O)N([C@@H](C)CO)C[C@@H]1C
-104[16.7 µM] | 38 | CC(C)CC#Cc1cnc2c(c1)C(=O)N([C@H](C)CO)C[C@@H](C)[C@H](CN(C)S(C)(=O)=O)O2
17[16.7 µM] | 2 | C[C@H](CO)N1C[C@H](C)[C@@H](CN(C)C(=O)Cc2ccccc2)Oc2cc(C3=CCCCC3)ccc2S1(=O)=O
-7[16.7 µM] | 3 | C[C@H](CO)N1C[C@H](C)[C@H](CN(C)Cc2ccccn2)Oc2cc(C#CCN(C)C)ccc2S1(=O)=O
